# Compound activity deposited in PubChem by National Center for Advancing Translational Sciences (NCATS).
# NPR1 antag – antagonists of human natriuretic peptide receptor Npr1; HEK293 hNpr1 GloSensor cGMP, ANP-stimulated luminescence; 1.6% of 76,000 active; Potency, µM (series often up to 46.3 µM), inactives show at the highest dose activity change, negative = inhibition, hits mostly inhibitors; AID 1347048; active = well fitted inhibition curve with a large enough effect; inconclusive = small, poorly fitted or top-dose-only effect; inactive = no such curve, though single readings can be large or run the other way;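 further: nearly all actives have a fitted effect of over 60% in size; nearly all hits also lower the signal before the agonist is added; a reference antagonist and vehicle were the controls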
# Target sequence (P16066 whole entry, looked up): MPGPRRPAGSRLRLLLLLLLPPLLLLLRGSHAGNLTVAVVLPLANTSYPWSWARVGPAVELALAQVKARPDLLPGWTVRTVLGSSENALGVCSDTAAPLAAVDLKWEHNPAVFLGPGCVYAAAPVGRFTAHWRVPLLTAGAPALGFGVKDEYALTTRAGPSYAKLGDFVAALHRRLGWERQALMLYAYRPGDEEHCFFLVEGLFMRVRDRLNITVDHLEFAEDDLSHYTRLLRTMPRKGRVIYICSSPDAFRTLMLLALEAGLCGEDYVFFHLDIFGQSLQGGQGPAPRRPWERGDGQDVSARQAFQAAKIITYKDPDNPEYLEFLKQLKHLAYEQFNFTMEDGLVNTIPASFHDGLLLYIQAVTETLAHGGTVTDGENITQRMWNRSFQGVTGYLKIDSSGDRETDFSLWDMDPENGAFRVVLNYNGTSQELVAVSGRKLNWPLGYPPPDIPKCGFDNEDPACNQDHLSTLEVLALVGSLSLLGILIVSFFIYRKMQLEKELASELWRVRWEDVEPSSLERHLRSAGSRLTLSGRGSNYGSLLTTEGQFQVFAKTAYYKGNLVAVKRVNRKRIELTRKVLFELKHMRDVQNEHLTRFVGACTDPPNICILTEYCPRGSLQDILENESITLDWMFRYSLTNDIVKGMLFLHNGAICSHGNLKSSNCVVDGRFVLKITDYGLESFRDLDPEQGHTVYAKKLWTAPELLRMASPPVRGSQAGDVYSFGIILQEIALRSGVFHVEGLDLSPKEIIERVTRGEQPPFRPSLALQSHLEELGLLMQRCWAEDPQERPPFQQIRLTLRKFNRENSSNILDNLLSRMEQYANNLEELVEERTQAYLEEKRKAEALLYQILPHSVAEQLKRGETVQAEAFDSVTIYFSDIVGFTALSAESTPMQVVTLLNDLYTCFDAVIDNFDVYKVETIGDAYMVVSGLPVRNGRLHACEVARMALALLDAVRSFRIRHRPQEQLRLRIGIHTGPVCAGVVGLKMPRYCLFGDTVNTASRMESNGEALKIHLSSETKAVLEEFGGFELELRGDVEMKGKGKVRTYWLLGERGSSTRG
#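 HEK293 cells stably expressing human Npr1 and cGMP GloSensor pGS-40F, loaded 2 h with 2% GloSensor reagent, given compound 30 min at room temperature. Luminescence read before and 20 min after 0.1 nM hNppA.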
# Active calls of the source: *; u = inconclusive; & = joins results of further samples; [ ] = dose if it differs, or a comment. On the % scale 0 is the no-effect control and ±100 the full control effect; potency means the concentration at half of the fitted maximal effect. A portion of the library (hit frequency here may not be typical).
NPR1 antag,molecule
4%,NC(=O)c1cccnc1OC1CCN(C(=O)c2cccc(Cl)c2)C1 (configuration not stated)
11%[70.6 µM],COCc1cn(C[C@H]2C[C@@H](NC(=O)c3cncnc3)[C@H](O)[C@@H]2O)nn1
-2%,COCc1nnc2n1CCC(NC(=O)c1ccc(C#N)cc1)CC2 (configuration not stated)
-16%,CCc1cccc(NC(=O)C2CCCN(c3cnn(Cc4ccccc4)c(=O)c3)C2)c1 (configuration not stated)
-2%,COc1cccc(CNC(=O)CN2CC3CC(C2)[C@H]2CCCC(=O)N2C3)c1OC (some centres not stated)
0%,COC[C@@H]1CN(C(=O)c2cc(OC)cc(OC)c2)C[C@H]1c1ccncc1
0%,Cc1cnc(C)c(-c2cc(O)c3c(c2)CN(C(=O)c2cc(C)[nH]n2)CCO3)n1
0%[70.6 µM],CC(c1cccs1)N(C)Cc1ccc(OC(F)(F)F)cc1 (configuration not stated)
-3%,Cc1ccc(C)c(NC(=O)N2CCCC(Cn3cnc4cccnc43)C2)c1 (configuration not stated)
-5%,CC(C)(C)c1ccc(C(=O)N2CCC(c3nc(C4CCOC4)no3)CC2)cc1 (configuration not stated)
3%,O=C1CCN(C(=O)[C@@H]2CCCN2Cc2cccc(F)c2)CCCCCCN1
7%,CCCc1noc(-c2cccn3c(CNC(=O)c4ccc(F)cc4Cl)nnc23)n1
0%,O=C1NCC2(CCN(C(=O)c3ccc4c(c3)OCO4)CC2)Oc2ccccc21
-1%[70.6 µM],CC(=O)N1CCN(c2ccnc(-c3nnc(C)n3C3CCCCC3)c2)CC1
2%[70.6 µM],CC1=C[C@@H](CC#N)[C@H](C(C)C)C[C@H]1CC(=O)NC1CC1
-1%,CCNC(=O)N1CCC2(CCCCO2)CC1
1%,CS(=O)(=O)N1CCCN(Cc2ccccc2C#N)CCNC(=O)CC1c1ccccc1 (configuration not stated)
12%[70.6 µM],CCNC(=O)N[C@H]1CO[C@H]2[C@@H]1OC[C@@H]2n1nnnc1Oc1ccccc1
-1%[70.6 µM],COc1cc(CN2CCC(C)(NC(C)=O)CC2)cc(Nc2ccccc2)c1
-5%[70.6 µM],C1=C(c2cc(-c3cccc(N4CCOCC4)c3)cn3cncc23)CCOC1
-19%,CCNC(=O)CCc1c(CC)nn(-c2ccc(F)cc2)c1Oc1ccccc1
-3%,CC(=O)Nc1ccc(C(=O)N2CCCN(c3cc(-c4ccccc4)[nH]n3)CC2)cc1
1%,COCCCN1CC2(CCC1=O)CCN(Cc1nonc1C)CC2
5%,O=C(Cc1ccncc1)N1CCC2(CC1)NCCc1c2[nH]c2ccccc12
-19%,O=C(Nc1ccc2c(c1)CN(Cc1ccccc1F)C(=O)CO2)c1ccc(F)cc1
-2%,CCC(=O)N1CCN(c2nc3c(s2)CC(C(=O)N2CCN(CC)CC2)CC3)CC1 (configuration not stated)
9%,CN1c2cc(C(=O)N3CCN(c4ccccc4F)CC3)ccc2C(=O)N2CCCCCC21 (configuration not stated)
-22%,O=S(=O)(c1ccc2c(c1)CCC2)N1CCC(Cc2nc(-c3ccncc3)n[nH]2)C1 (configuration not stated)
-1%,CN1C(=O)C(c2ccccc2)CC12CCN(Cc1ccc(F)c(F)c1)CC2 (configuration not stated)
-2%,N#Cc1ccc(C(=O)N2CCCOCCNC(=O)CC2)cc1
-10%,CC[C@@H]1[C@@H](NC(=O)C2(c3ccc(S(C)(=O)=O)cc3)CCC2)[C@@H]2CCO[C@H]12
-23%,O=[S+]1([O-])NC2(CCN(Cc3ccc(C(F)(F)F)cc3)CC2)CNc2ccccc21
-4%[70.6 µM],NC(=O)Cc1c[nH]c2ncc(-c3ccc4c(c3)OCO4)cc12
13%&18%[70.6 µM],COCCNC(=O)C1CN(c2cccc(Cl)c2)C(=O)N1 (configuration not stated)
-6%,Cc1cccc(CN2CCC3(CC2)OC(=O)N(Cc2cccnc2)C3(C)c2ccccc2)c1 (configuration not stated)
0%,CCCc1noc(-c2cccn3c(CNC(=O)c4ccc(OCC)cc4)nnc23)n1
1%,O=C(Cn1nc2n(c1=O)CCCC2)N1CCN(c2ccc(F)cc2)CC1
0%,CC(C)CN1C(=O)c2cccn2CC1C(=O)N1CCN(Cc2ccc3c(c2)OCO3)CC1 (configuration not stated)
u,CC(C)CCN1CCc2nc(C(=O)Nc3ccc(Cl)cc3)oc2CC1
-2%[70.6 µM],CNC(=O)c1cc(-c2ccc(OC)nc2)cc2c1OCCN2Cc1cccnc1
5%,N#Cc1cccc(C(=O)NC2CCc3nnc(C4CC4)n3CC2)c1 (configuration not stated)
-4%[70.6 µM],Cc1ccc(C(=O)N2CCC(N3Cc4cnc(C)n4C3=O)CC2)cc1
0%,CCn1ncc(N2CCC(NC(=O)c3sccc3C)CC2)cc1=O
10%[70.6 µM],CCc1cn(C[C@H](NC(=O)COC)C(=O)O)c(=O)[nH]c1=O
-1%,CN1CCC(Oc2ccc(C(=O)NCCc3ccccn3)cn2)CC1
u,Cc1ccc(F)c(CN2CCC3(CCNCC3)C2)c1Cl
-1%,Cc1cccc(OCC2CCCN(c3ncncn3)C2)c1 (configuration not stated)
4%,Cc1cccc(C(=O)N2CCCC(c3cc(N4CCOCC4)ncn3)C2)c1 (configuration not stated)
3%,CO[C@@]1(C)C[C@@H](O)C12CCN(C(=O)CSc1ccccc1C)CC2
-8%[70.6 µM],O=C1NC2(CCCN(Cc3ccsc3)C2)Oc2ccccc21 (configuration not stated)
4%,O=C1CC2(CCN(Cc3ccc(F)cc3)CC2)Oc2ccccc2N1
14%,Cc1cc(F)ccc1OC1CN([S+](=O)([O-])CCC(F)(F)F)C1
7%[70.6 µM],CC1(C)[C@H](Cc2cc(CCO)on2)C[C@@H]1NC1CCOCC1
-9%,CCc1ccc(S(=O)(=O)N2C[C@@H](F)C[C@H]2C(=O)N2CCc3ccccc3C2)cc1
0%,Cn1cc(C(=O)NCC(=O)N2CCCCCCNC(=O)CC2c2ccccc2)cn1 (configuration not stated)
3%,COc1ccc(C(=O)N2CCC3(CC2)CC(c2nc(C)no2)N(C)C3)cn1 (configuration not stated)
-10%,C=CCCC(CN1CCSCC1)Oc1cc(CC)nc(C)n1 (configuration not stated)
6%,Cc1ccc(C)c(CN2CC[C@@H]3CN(S(C)(=O)=O)[C@@H]3C2)c1
-2%,CCNC(=O)CC1=CSC2=NC(C)=C(C(=O)OCC)C(c3cccc([N+](=O)[O-])c3)N12 (configuration not stated)
-5%[70.6 µM],C=CCn1cc2c3c(cccc31)[C@H](CC(C)C)N[C@H](C(=O)NCc1ccccc1OC)C2

# Next section.
NPR1 antag,molecule
0%,CC1=C(C(=O)NC2CC(=O)N(Cc3cccc4ccccc34)C2)OCCO1 (configuration not stated)
5%[70.6 µM],CCCOc1cc(C)c2c(c1C)C[C@H](C(C)C(=O)NCc1ccc(OC)cc1)CC2 (some centres not stated)
0%,Cc1cnn(C2(C(=O)O)CCN(C(=O)c3cnn4cccnc34)CC2)c1
2%,O=C(NCCCn1ccnn1)C1CCCN(C2CCCC2)C1 (configuration not stated)
-1%,O=C(CCc1c[nH]c2ccccc12)NC1CCN(c2ccc(=O)[nH]n2)CC1
-14%[70.6 µM],CN1CC2(CCCN(CC3CC3)C2)c2cc(C(=O)NCCc3ccccn3)ccc21 (configuration not stated)
3%,Cc1sc2cc(C(=O)N(C)C)[nH]c2c1CN1CCCCC1
0%,CCCNC(=O)N1CCCOCCNC(=O)[C@@H]2CCC[C@@H]21
-4%,CCCS(=O)(=O)N1CCC(Cc2nncn2-c2ccccc2)CC1
0%,CCN1c2cc(C(=O)N3CCCC3)ccc2C(=O)N2CCCCCC21 (configuration not stated)
-28%,O=C(NC1CCCCCC1)c1cc2n(n1)CC(c1ccc(Cl)cc1)OC2 (configuration not stated)
-1%,O=C1CCN(S(=O)(=O)c2ccccc2)CCCN(C(=O)c2cc3ccccc3[nH]2)CCN1
3%[70.6 µM],CSCC(=O)N[C@H]1CCN2C(=O)c3ccccc3NC(=O)[C@H]12
-19%,Cc1cccnc1C(C)NC(=O)C1(Oc2ccc(Cl)cc2)CCNCC1 (configuration not stated)
1%,Cc1ccc(S(=O)(=O)NC[C@H]2OC[C@@H](NCc3ccc(S(C)(=O)=O)cc3)[C@@H]2O)cc1
0%,O=C(c1ccc2cc[nH]c2c1)N1CCC2(CCCCO2)CC1
-4%,CC(C)CC(=O)N1CCOc2ccc(CN3CCc4ccccc4C3)cc2C1
u,COc1ccc(S(=O)(=O)NC[C@H]2Cn3c(-c4ccc(Cl)cc4)cnc3CO2)cc1
-8%[70.6 µM],Cc1nn(-c2ccccn2)c(C)c1[C@@H]1C=C[C@@H](NC(=O)C2CCCCC2)C1
-7%,CCOc1ccc(NC(=O)Cn2c(-c3ccc(F)cc3)nc(C)c(CCO)c2=O)cc1
3%,COc1cc(CN2CCC3(CC2)C(=O)NCN3Cc2ccc(Cl)cc2)ccc1F
4%,Cc1nc(C)c(C(=O)NCC2Cn3cccc3C(=O)N2C)s1 (configuration not stated)
-2%,CC(C)S(=O)(=O)N1CCC(OC2CCN(Cc3cccnc3)CC2)CC1
3%,Cc1ccc(C(=O)NCc2nnc3ccc(-c4ccccc4)nn23)s1
2%,C=CCS(=O)(=O)N1CCCC(CCc2c(F)cccc2F)C1 (configuration not stated)
0%,O=C(c1ccoc1)N1CCCCCC1CN1CCOCC1 (configuration not stated)
0%,COc1cccc(CCC(=O)NCc2nnc3c(-c4nc(C5CC5)no4)cccn23)c1
-1%,Cn1cnc(S(=O)(=O)N2CC[C@@H]3C(=O)NCCCCCCN(Cc4ccncc4)[C@@H]3C2)c1
-4%,O=C(NC1CC1)[C@@H]1C[C@H](Oc2ccccc2)CN1C(=O)c1cc2ccccc2[nH]1
-6%,Cc1nn(C)c(C)c1CCC(=O)N1C[C@@H](CO)[C@H](c2ccccn2)C1
-3%,NC(=O)c1cc[nH]c1C1CCCN(C2CCSCC2)C1 (configuration not stated)
-9%,COc1ccc(Cc2nc3nccc(-c4cc(OC)c(OC)c(OC)c4)n3n2)cc1
7%,COc1ccccc1C(=O)N1C[C@@H](COc2ccccc2)[C@H](C(N)=O)C1
-1%,Clc1ccc(C2Cn3nnc(-c4nc(-c5ccsc5)no4)c3CO2)cc1 (configuration not stated)
4%,Cc1ccc(CNC(=O)N2C[C@@H](Oc3cccnc3)C[C@H]2C(=O)N2CCOCC2)cc1
4%,Cc1ccc(CN2CCC3(CC2)CCN(C(=O)C2CCC2)CC3CO)s1 (configuration not stated)
u,COCCN1CC(C(=O)NCc2sc3ccccc3c2Cl)CCC1=O (configuration not stated)
-1%,CN(CC1CC1)C(=O)c1coc(CN2CCN(c3ccccc3F)CC2)n1
5%,COc1nc2c(cc1CNC(=O)CC1CC1)C(=O)N(C1CCCC1)C2
-4%,COC1C(=O)N(c2cccc(F)c2)C12CCN(Cc1cccc(C#N)c1)CC2 (configuration not stated)
2%,Cc1cc2ccccc2n1CCC(=O)N1CC[C@@](C)(O)[C@@H](O)C1
1%,CCn1nccc1C(=O)N1C[C@@H](CO)[C@H](c2ccncc2)C1
7%,O=C(C1CCC1)N1CCC(Oc2cccnc2)C1 (configuration not stated)
1%,Cc1cc(C)n(CC(=O)N(C)C2CCc3nn(CC4CC4)c(=O)n3CC2)n1 (configuration not stated)
-3%,Cc1cccc(-c2nocc2CCC(=O)NCc2ccc(F)cc2F)c1
-23%,COc1cc(Nc2nc(-c3cccc(OC)c3OC)no2)cc(OC)c1OC
0%,CO[C@H]1C(=O)N(C(C)C)[C@H]1C1CCN(Cc2ccc(F)cc2F)CC1
0%[70.6 µM],Cc1noc(C)c1-c1cc2cc(CO)oc2c(N2CCS(=O)(=O)CC2)n1
-29%[70.6 µM],Oc1ccccc1CN1CCNc2cc(-c3ccccc3)ncc2C1
-1%[70.6 µM],COc1cccc(CN2Cc3nc(-c4cc(Cl)ccc4OC)ccc3OCC2=O)c1
4%,O=C(CC1CCCC1)NCC(=O)N1CCCCCCNC(=O)CC1c1ccccc1 (configuration not stated)
7%,O=C(NCc1nnc2ccc(-c3ccccc3)nn12)c1cc(Cl)ccc1F
5%,CN1CCC(N[C@H]2CC(C)(C)[C@@H]3C[C@@](C)(O)CC[C@]23CCC(=O)NCc2cccnc2)CC1
1%,O=C(CC[C@H]1NC(=O)c2ccccc2NC1=O)NCCCc1nc2ccccc2[nH]1
